CapD inh = inhibitors of Bacillus anthracis CapD enzyme; purified CapD enzyme, fluorescence intensity read-out; active compounds read low; some hits fall short of the stated cut; z-score (no concentration beside the values); 140,000 tested, 0.23% active; AID 492967;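 active = z-score under -4 in either of two replicates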;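 note: stock transfer was 100 nL into about 40 µL; score is relative to mean and spread of the plate; one replicate is shown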
AID504770 = E. coli YBA685 growth inhibition, screen for V. cholerae RctB inhibitors; E. coli YBA685 rctB-dependent plasmid, OD600 growth, 3 h; active compounds read low; z-score (no concentration beside the values); 130,000 tested, 0.27% active; AID 504770;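 active = z-score under -2 on both plates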;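 note: wells of about 30 µL received 100 nL stock; score is relative to mean and SD of the test wells; the first replicate is given; strong numbers were not always called active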
* = called active by the depositor; i = inactive; . = no result given.

Each structure is followed by: CapD inh, AID504770
CCC(=O)n1nc(-c2ccco2)nc1SC
→ 2.2, 2
CSc1nc(C(N)=O)cc(=O)[nH]1
→ -0.93, -1
Cc1nc2ccccc2n1CCO
→ -0.065, 2
O=C(CSc1nc2ccccc2c(=O)n1Cc1ccco1)N1CCc2ccccc21
→ ., -1.9
Cc1cc(N2CCNCC2)nc(C)n1
→ ., -0.35
NC(=O)NC(=O)Cc1nc2ccccc2s1
→ -0.61, -0.85
CCOC(CNC(=O)c1sc2ncnc(N3CCCCC3)c2c1C)OCC
→ 0.16, .
CCOC(=O)C1=NN(c2ccccc2)C(=O)/C1=C\c1ccc(N(C)C)cc1
→ 0.21, 0.45
Cc1cccc(CN2CCCC2CO)c1 (stereo not given)
→ 0.2, -0.5
O=C(Nc1ccc2c(c1)CCC2)c1ccccn1
→ ., 0.15
C=C1c2ccccc2NC(=S)N1C
→ ., -0.8
CCc1cccc(CC)c1NC(=O)COC(=O)Cc1ccsc1
→ 0.53, -2.8
Cc1n[nH]c(C)c1Sc1ccccc1
→ 0.1, -0.05
Cc1[nH]c(SCC(=O)N2CCN(C(=O)c3ccco3)CC2)nc1Cc1ccccc1
→ ., 0.1
CS(=O)(=O)c1ccc(C(F)(F)F)cc1NNc1cc(C(F)(F)F)ccc1S(C)(=O)=O
→ 3.4, .
CCOC(=O)CCCc1c[nH]c2ccccc12
→ 0.13, -0.9
COc1cccc(SCC(=O)N2CCN(c3ccccc3)CC2)c1
→ -1.4, 0.1
Fc1ccc(CSc2nnc(-c3ccco3)o2)c(Cl)c1
→ ., -0.55
CN(C(=O)C12CCC(C)(C(=O)O1)C2(C)C)c1ccccc1 (stereo not given)
→ -0.88, 0
CCCCNC(=O)c1ccc(CS(=O)(=O)c2ccc(C)cc2)o1
→ -1.1, 0.55
CC(C)CNC(=O)c1cccc(S(=O)(=O)N(C)C)c1
→ 0.075, 1.6
CCOC(=O)/C=C1\SCC(=O)N1CC(=O)Nc1cccc(C)c1C
→ ., 0.05
CCn1cc(S(=O)(=O)N2CCN(Cc3ccccc3)CC2)cn1
→ 0.42, -0.85
CN1CCc2nc3ccccc3c(C(=O)OCC(=O)NCc3ccccc3)c2C1
→ ., -1.4
c1cncc(Oc2ncnc3sc4c(c23)CCCC4)c1
→ i, 2.2
O=C(Nc1ccc2c(c1)OCCO2)c1ccc(N2CC3CC(C2)c2cccc(=O)n2C3)c(NC(=O)c2c(F)cccc2F)c1 (stereo not given)
→ -0.67, .
CCOc1ccc(C2CC(=O)N3CN(CCc4ccccc4)CSC3=C2C#N)cc1 (stereo not given)
→ -0.59, 0.15
COc1ncnc2nc[nH]c12
→ 0.16, 0
Cc1onc2c1C(=O)CC(C)(C)C2
→ ., -0.95
Cn1nc(-c2ccccc2)cc1N
→ 0.94, .

Additional structures follow:
Each structure is followed by: CapD inh, AID504770
CC(C)(C)c1cc(C(=O)NC2CC2)n(Cc2ccc(F)cc2)n1
→ 0.02, -1.7
CC(=O)N1CC(C(=O)N2CCN(S(=O)(=O)c3ccccc3C#N)CC2)Oc2ccccc21 (stereo not given)
→ ., -0.5
N#CSCOC(=O)Oc1ccc2ccccc2c1
→ 2.2, -1.9
COc1ccc(C(Cc2cnccn2)Oc2nc(C)cc(C)n2)cc1 (stereo not given)
→ -0.26, .
CCn1c(O)c(C2=c3cc(Cl)ccc3=NC2=O)c2ccccc21
→ -0.045, 0.4
O=C(CCC1CCCC1)Nc1ccc(S(=O)(=O)N2CCCCC2c2cccnc2)cc1 (stereo not given)
→ -1.3, .
CN1CCCc2cc(SC#N)ccc21
→ 0.53, 0.05
CC(C)COC(=O)Nc1cccnc1
→ ., 0.25
COc1cc(NS(=O)(=O)c2ccc(NC(=O)Cc3nn(C)c(=O)c4ccccc34)cc2)nc(OC)n1
→ -0.28, .
COc1cc(OC)c(C2C(C(=O)OCCOc3ccccc3)=C(C)NC3=C2C(=O)CC(C)(C)C3)cc1OC (stereo not given)
→ 1.6, .
CCN(CC)C(=O)c1[nH]c(C)c(C)c1C
→ 0.67, .
CCOc1cccc2c1OC(c1ccccc1Cl)N1N=C(c3ccc(F)cc3)CC21 (stereo not given)
→ -0.2, .
CCC(C)NC(=O)c1cnn2c(C)cc(C)nc12 (stereo not given)
→ ., 0.05
O=C(O)c1nn(CC2CCCCC2)c(=O)c2ccccc12
→ ., 0.2
CCOC(=O)/C=C1/CSc2ccccc2N1
→ -1.9, 0.15
COc1cc(-n2ccnc2SCc2ccccc2)c(Cl)cc1Cl
→ -0.28, .
CN(CC(=O)Nc1ccccc1Cl)CC1COc2ccccc2O1 (stereo not given)
→ ., -0.6
CC(C)(C)NC[C@@H](O)COc1cccc2c1CCCC2=O
→ -0.96, .
O=C(Cc1ccccc1)NC1(O)C(=O)c2ccccc2C1=O
→ 0.77, -0.6
O=C(Nc1cc2c(ccc3ccccc32)oc1=O)c1ccccc1
→ 0.28, 0.1
COC(=O)C1=C(Nc2ccc(Cl)cc2)CSC1
→ -0.025, .
OC(CN1CCN(c2ccccn2)CC1)Cn1c2ccc(Cl)cc2c2cc(Cl)ccc21 (stereo not given)
→ 0.44, .
COc1cc(/C=C(/C#N)c2nc(-c3cc4c(ccc5ccccc54)oc3=O)cs2)ccc1O
→ 1.9, .
Cc1nn(-c2ccccc2)c2c1C(C(F)(F)F)(C(F)(F)F)OC(c1ccco1)=N2
→ ., -0.35
O=S(=O)(NC1CCCc2ccccc21)c1cccs1 (stereo not given)
→ -1.7*, -1.1
Cc1cccc(NC(=O)CSc2nc3n[nH]c(C)c3c(=N)n2-c2ccc(Br)cc2)c1
→ -0.075, .
O=C(CSc1nc2ccccc2c2nc3ccccc3n12)NCc1ccco1
→ -1, -0.35
Cc1ccccc1CSCC(=O)Nc1ccc(O)cc1C(=O)O
→ 14, -1.1
C/C(=N/NC(=O)CSc1nc2ccccc2[nH]1)c1ccncc1
→ 0.22, -0.8
CCCNC(=O)CCc1nnc2ccc(N3CCC(C)CC3)nn12
→ -1.1, 2.3

An excerpt of these results, with bars between the fields.
mol | CapD inh | AID504770
CCn1c(O)c(C2=c3cc(Cl)ccc3=NC2=O)c2ccccc21 | -0.045 | 0.4
c1cncc(Oc2ncnc3sc4c(c23)CCCC4)c1 | i | 2.2
COC(=O)C1=C(Nc2ccc(Cl)cc2)CSC1 | -0.025 | .
CCC(=O)n1nc(-c2ccco2)nc1SC | 2.2 | 2
CCOC(CNC(=O)c1sc2ncnc(N3CCCCC3)c2c1C)OCC | 0.16 | .

Next entries:
Each structure is followed by: CapD inh, AID504770
O=C(Nc1nc2ccccc2[nH]1)C1CCCC1
→ ., 1.6
CN1C2CCC1CC(NC(=O)CS(=O)(=O)c1ccccc1)C2 (stereo not given)
→ 0.21, 0.05
O=c1cc2c(nn1Cc1c(Cl)cccc1Cl)-c1ccccc1CC2
→ -0.33, .
CCOc1cccc(CNc2ccc(NC(=O)CC)cc2)c1O
→ -0.11, -0.95
COC(=O)c1c(C(=O)OC)c2n(c1C)CCS2
→ 0.23, -0.95
O=C(NCCC(=O)N1CCN(c2ncccn2)CC1)c1ccccc1Cl
→ ., 1.5
OCCN1CCN(Cc2cc(Cl)c3cccnc3c2O)CC1
→ 0.15, -0.1
O=c1c2ccccc2c(-c2ccccc2)nn1CN1CCCC1
→ 0.69, -0.6
CCc1cc2c(Cl)ncnc2s1
→ -0.13, -0.4
Cc1cc(-n2nc(C)cc2C)nc(NS(=O)(=O)c2ccccc2)n1
→ 0.74, .
COc1cccc2cc(C(=O)Nc3ccc(F)c(Cl)c3)c(=Nc3ccc(C(=O)O)cc3)oc12
→ -0.41, .
CCOC(=O)c1cnc(SCC(=O)N2c3ccccc3SC3C=CC=CC32)nc1N (stereo not given)
→ -0.53, -0.05
Cc1noc(C)c1CC(=O)Nc1cc(C(F)(F)F)ccc1NC1CCCCC1
→ ., -0.6
N#C/C(=C\C(=C\N1CCOCC1)c1ccccc1)c1ccccc1
→ 6.8, -0.95
O=C(O)CN1C(=O)/C(=C\c2ccc(C(F)(F)F)cc2)SC1=S
→ -1.2, .
CCOc1ccccc1C1C(C#N)=C(SC)NC2=C1C(=O)CCC2 (stereo not given)
→ 0.6, 0.7
O=C1c2cccc([N+](=O)[O-])c2C(=O)N1CCc1c[nH]c2ccc(OCc3ccccc3)cc12
→ -0.14, .
Cn1c(/C(C#N)=C(\O)COc2cc(Cl)c(Cl)cc2Cl)nc2ccccc21
→ ., -0.8
CC(COC(=O)NC(Cc1c[nH]c2ccccc12)C(=O)OCc1ccccc1)c1ccccc1 (stereo not given)
→ 0.14, .
CC1(C)C(=S)NC(c2ccccc2)N1O (stereo not given)
→ 0.52, 0.45
CC(NC(=O)c1cccs1)C(c1cccs1)N1CCN(C)CC1 (stereo not given)
→ -1, 0.4
Cc1ccc(Sc2c(C)nn(C(=O)c3ccco3)c2C)cc1
→ 0.86, -0.6
CCCCN(C(=O)Nc1cccc2ccccc12)C1CCS(=O)(=O)C1 (stereo not given)
→ 0.34, 0
Cc1nc(COc2ccc(C(C)(C)C)cc2)ncc1S(=O)(=O)c1ccc(Cl)cc1
→ 9.7, 0.2
O=C(COc1c(-c2ccco2)oc2ccccc2c1=O)c1ccc(Br)cc1
→ ., 0.55
O=C1C(Cc2cc(Cl)ccc2Cl)S/C(=N\N=C\c2ccccc2O)N1Cc1ccco1 (stereo not given)
→ ., 1.1
C=CCN(C(=O)CN1CCN(C)CC1)c1nc(-c2c[nH]c3ccccc23)cs1
→ -0.66, 0.05
O=[N+]([O-])c1cccnc1NC1CC1
→ -1.3, .
CC1C(=NO)C(C)C(c2ccccc2)NC1c1ccccc1 (stereo not given)
→ ., -0.2
COc1ccccc1N1CCN(Cc2ccc(SC)cc2)CC1
→ -0.035, -0.65

A draw from above in order of number of heavy atoms, largest number first.
Each structure is followed by: CapD inh, AID504770
C=CCN(C(=O)CN1CCN(C)CC1)c1nc(-c2c[nH]c3ccccc23)cs1
→ -0.66, 0.05
O=C(COc1c(-c2ccco2)oc2ccccc2c1=O)c1ccc(Br)cc1
→ ., 0.55
Cn1c(/C(C#N)=C(\O)COc2cc(Cl)c(Cl)cc2Cl)nc2ccccc21
→ ., -0.8
COc1ccccc1N1CCN(Cc2ccc(SC)cc2)CC1
→ -0.035, -0.65
CC1C(=NO)C(C)C(c2ccccc2)NC1c1ccccc1 (stereo not given)
→ ., -0.2
O=C(Nc1nc2ccccc2[nH]1)C1CCCC1
→ ., 1.6

Other results
Each structure is followed by: CapD inh, AID504770
C=CCOc1nc(-c2ccccc2)cc(-c2ccc(OC)cc2)n1
→ 64, -0.05
Cc1cccc(NC(=S)NCc2ccco2)c1
→ ., -0.55
Cc1ccc2c(c1)c1c3n2CCN(CCC#N)C3CCC1 (stereo not given)
→ 3.5, 0.2
COc1ccccc1N1CCN(C(=O)c2cnc(Nc3ccc(C)c(Cl)c3)c3ccccc23)CC1
→ 0.4, .
Cc1cc(=O)[nH]c(NNC(=S)NCc2ccccc2)n1
→ ., 0.35
Cc1cccc(N2CCN(C(=O)CN3CCN(Cc4ccc(Cl)cc4)C3=O)CC2C)c1 (stereo not given)
→ -0.28, -0.5
CCOC(=O)c1nc(Nc2cccc(Cl)c2C)c2ccccc2n1
→ -0.04, .
COC(=O)CSc1n[nH]c(-c2ccccn2)n1
→ ., -1.1
CSc1nnc(-c2ccc(C(C)(C)C)cc2)o1
→ -0.6, 2.2
O=C1OC(Nc2cccc(C(F)(F)F)c2)c2ccccc21 (stereo not given)
→ -0.04, 1.1
CN1C(=O)NC(c2ccccc2)C2=C1CC(C)(C)CC2=O (stereo not given)
→ 0.8, 0.7
CSc1ccccc1C(=O)Nc1ncn[nH]1
→ 0.52, -0.05
NC(=S)N/N=C1/C(=O)c2cccc3cccc1c23
→ ., -1.1
Nc1nnc(SCC(=O)Nc2ccc3c(c2)OCO3)s1
→ 0.32, .
CC1(C)CC(NC(=S)NC(=O)c2ccccc2)CC(C)(C)N1
→ 0.98, 1.4
CN(Cc1ccccc1)C(=O)c1cc(S(=O)(=O)N2CCCC2)cn1C
→ 62, -0.45
COc1ccc2c3c([nH]c2c1)[C@@H]1C[C@@H]2C(OC(C)=O)=COC(C)C2CN1CC3 (stereo not given in full)
→ 0.36, 0.65
COc1cccc(N=Cc2cn(-c3ccccc3)nc2-c2cccs2)c1
→ ., 0
COc1ccc(C(C#N)C2(C)OCCO2)cc1OC (stereo not given)
→ -0.77, 2.1
O=[N+]([O-])c1ccc2nsnc2c1
→ -0.11, .
CCn1c2ccccc2c2nc3cc(OC)c(OC)cc3nc21
→ 14, .
CCOC(=O)c1[nH]c2ccccc2c1N=CN(C)C
→ ., -0.25
CS(=O)(=O)c1ccc(NC(=O)c2cc(=O)[nH]c3ccccc23)cc1
→ ., -0.2
O=C(c1cc(-c2ccccc2Cl)nc2ccccc12)N1CCN(C2CCS(=O)(=O)C2)CC1 (stereo not given)
→ ., -0.55
O=C(O)/C=C/C(=O)Nc1ccc(SC(F)(F)F)cc1
→ 0.24, 0.85
CCCc1ccc(C(=O)COc2ccc(-n3cnnn3)cc2)cc1
→ ., 0.8
CC(=O)N1c2ccccc2N=C(c2ccc(Cl)cc2)CC1c1ccc(F)cc1 (stereo not given)
→ -0.3, .
COc1ccc(-c2nc3ccccc3c(=O)n2NC(=O)c2cc(Cl)ccc2OC)cc1OC
→ -0.09, .
COCc1nc2ccccc2c2c1C(=O)N(Cc1c(OC)cc(OC)cc1OC)C2=O
→ -0.15, .
CC(C)Oc1cc(NC(=O)CS(=O)CC(=O)N(C)C)c(Cl)cc1Cl (stereo not given)
→ -0.13, .

Additional compounds.
Each structure is followed by: CapD inh, AID504770
COC(C(=O)Nc1ccccc1SC)c1ccccc1 (stereo not given)
→ -0.06, -0.4
Cc1nc2cc(-n3ccc(=O)cc3)ccc2n1-c1ccccc1
→ 1.5, 2.4
CCCCn1nc(NS(=O)(=O)c2ccc(C)cc2)c2cc3cccc(C)c3nc21
→ -0.64, -1.9
OCC(O)C1OC(Nc2ccc(Cl)cc2)C(O)C1O (stereo not given)
→ -0.55, 0.35
COC(=O)C(=O)/C=C(\O)c1c(F)c(F)c(OC)c(F)c1F
→ -0.53, 0.7

High-throughput results from PubChem BioAssay.
